# HCMV NEC inh – disrupts HCMV UL50-UL53 complex binding. AID 1918969. HTRF UL50-UL53 interaction, normalized percent inhibition. inhibition, % (concentration not given with the values). 0.15% of 190,000 active;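 active means both replicates at 50% or more, plus weaker picks with an unusually low signal ratio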;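 further: stock transfer was 100 nL into about 20 µL; 0% = negative control wells and 100% = wells with untagged competitor protein; inactives centre near -12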
# GIV Gai3 FP – inhibitors of GIV GBA-motif binding to rat Galpha-i3 | P08753 | Galpha-i3/FITC-GIV peptide fluorescence polarization, 90 min; stronger effect = lower value; scaled: aluminum fluoride 0%, vehicle 100% | percent of control (FP), % (no concentration beside the values) | 0.42% of 210,000 active;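 active means replicate mean at 85% of control or lower, very high polarization wells dropped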;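 further: wells of about 15 µL received 100 nL stock; the first replicate is given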
# Target sequence (P08753 whole entry, looked up): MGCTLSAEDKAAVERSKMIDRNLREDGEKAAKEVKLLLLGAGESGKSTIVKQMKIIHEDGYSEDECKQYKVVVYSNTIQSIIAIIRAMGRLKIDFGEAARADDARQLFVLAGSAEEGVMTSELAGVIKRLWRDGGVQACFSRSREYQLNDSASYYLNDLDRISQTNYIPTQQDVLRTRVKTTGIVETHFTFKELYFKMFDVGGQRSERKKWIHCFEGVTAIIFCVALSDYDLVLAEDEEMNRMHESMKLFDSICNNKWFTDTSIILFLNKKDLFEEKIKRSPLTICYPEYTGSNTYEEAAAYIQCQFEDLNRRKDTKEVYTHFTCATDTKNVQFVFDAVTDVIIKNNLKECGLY
# Sa growth inh – inhibitors of Staphylococcus aureus growth at 42 °C; S. aureus RN4220 growth, OD600, 20 h; stronger effect = lower value; relative growth, % (no concentration beside the values); 0.53% of 170,000 active; AID 720641;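 active means growth at 42 °C up to 50% and 20 or more points under that at 30 °C, or under 10% at both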;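 further: 300 nL library stock went into each well; scaled to the means of positive and negative controls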
# Sa growth inh second temp – recorded beside Sa growth inh, whose call it bears; relative growth, %; measured here: growth at 30 °C;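 optical density after 20 h as mean of two plates; 100% = untreated growth and lower means inhibition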
# Numbers without * were called inactive; nt = no result given.
# Values in the order – HCMV NEC inh, GIV Gai3 FP, Sa growth inh, Sa growth inh second temp
- COc1cccc(N2CCN(C(=O)c3nn(C)c4c3COc3ccccc3-4)CC2)c1
  -20, 97, 90, 79
- CC(C(=O)N1CCCCC1)N(c1ccccc1)S(C)(=O)=O (stereo not drawn)
  -27, 104, 115, 86
- Cc1ccc(S(=O)(=O)NC2CCCCC2)c2nsnc12
  -69, 105, 123, 78
- Cc1nc2nc3c(c(Nc4ccc(Br)c(C)c4)n2n1)CCC3
  -10, 107, nt, nt
- COc1ccc(-c2cc(-c3ccccc3)nc3c2COc2ccc(Cl)cc2-3)cc1
  -19, 105, 100, 87
- NC(=O)c1sc2c(c1N)C(c1ccc(Cl)cc1)C1=C(N2)c2ccccc2C1=O (stereo not drawn)
  -28, nt, 122, 92
- CCCSc1nc2c(c(=O)[nH]1)C(c1ccc(C(=O)OC)cc1)C(C(=O)OC)=C(C)N2 (stereo not drawn)
  -31, 92, nt, nt
- CNC(=O)Cc1nc2ccccc2[nH]1
  6, 109, 98, 105
- Cc1nc2c([nH]1)C(c1ccc(C(C)C)cc1)C(C#N)=C(C#N)O2 (stereo not drawn)
  -13, nt, 89, 92
- O=C(COc1ccccc1)OCc1ccccc1F
  -24, nt, 113, 92
- COc1cccc(NC(=O)C2CCCN(S(=O)(=O)c3c(C)nn(C)c3C)C2)c1 (stereo not drawn)
  -8, 100, 98, 89
- CC1CCCC(NC(=O)Cn2c(-c3cccs3)cc3ccccc32)C1C (stereo not drawn)
  nt, 97, 96, 76
- CC1CCN(C(=O)c2ccc(S(=O)(=O)N(C)C)cc2)C(C)C1 (stereo not drawn)
  -9, 102, 99, 98
- CCCCc1nnc(NC(=O)CSc2nc(O)c(NC(C)=O)c(=O)[nH]2)s1
  15, 104, 105, 96
- COc1cc(NC(=O)Cn2c(=O)n(CC3CCCO3)c(=O)c3ccccc32)cc(OC)c1 (stereo not drawn)
  0, 107, 95, 102
- CC(C)N1CC(O)=C(c2nc3ccccc3[nH]2)C1=N
  -23, nt, 90, 74
- CN(CCc1noc(COc2ccccc2F)n1)S(=O)(=O)c1ccc(F)cc1F
  -12, 97, nt, nt
- O=C(CN1C(=O)CCC1=O)Nc1ccccc1-c1nc2ccccc2o1
  -1, 113, 102, 95
- CC(C)c1ccc(Nc2cc(C(=O)NCc3cccs3)c3ccccc3n2)cc1
  -5, 100, 107, 104
- CCN(Cc1ccccc1)Cc1c(O)ccc2c(=O)c(-c3ccccc3OC)c(C(F)(F)F)oc12
  -12, 102, 90, 98
- Cc1oc(-c2ccc(Cl)cc2)nc1CSc1nc2ccncc2[nH]1
  -10, 99, 107, 92
- Cc1c(-c2ccn[nH]2)nnn1-c1cc(Cl)ccc1Cl
  -16, 104, 91, 84
- Cc1cccc(NS(=O)(=O)c2ccc3c(c2)CC(C)N3C(=O)C2CCC2)c1C (stereo not drawn)
  nt, 110, 92, 121
- CC1CCC(C(C)C)C(OC(=O)CSc2nccc(=O)[nH]2)C1 (stereo not drawn)
  -7, nt, 79, 80
- Cc1nc(-c2ccc(N3CCN(C(=O)C4CC(=O)N(c5ccc(C)c(C)c5)C4)CC3)cc2)no1 (stereo not drawn)
  -1, 107, nt, nt
- Cc1[nH]c(=O)[nH]c(=O)c1S(=O)(=O)N1CCCc2ccccc21
  nt, 104, 101, 82
- Cc1ccccc1C(=O)N1CCC(C(=O)NC2CCCCCC2)CC1
  -9, 101, 100, 72
- CCC(C)c1ccc(NC(=NCc2ccncc2)NC(=O)c2ccc(NC(C)=O)cc2)cc1 (stereo not drawn)
  -13, 102, nt, nt
- Cc1csc(NC(=O)c2cc(-c3cccnc3)n(-c3ccc(F)cc3)n2)n1
  -3, 102, nt, nt
- O=C1CSC2(C(=O)N(Cc3ccccc3)c3ccccc32)N1c1cccc(F)c1 (stereo not drawn)
  nt, 104, 91, 86

# Pulled one by one from the list above, two records:
# Values in the order – HCMV NEC inh, GIV Gai3 FP, Sa growth inh, Sa growth inh second temp
- CC(C(=O)N1CCCCC1)N(c1ccccc1)S(C)(=O)=O (stereo not drawn)
  -27, 104, 115, 86
- COc1ccc(-c2cc(-c3ccccc3)nc3c2COc2ccc(Cl)cc2-3)cc1
  -19, 105, 100, 87

# Back to the main list, repeating the 6 entries before the break.
# Values in the order – HCMV NEC inh, GIV Gai3 FP, Sa growth inh, Sa growth inh second temp
- Cc1nc(-c2ccc(N3CCN(C(=O)C4CC(=O)N(c5ccc(C)c(C)c5)C4)CC3)cc2)no1 (stereo not drawn)
  -1, 107, nt, nt
- Cc1[nH]c(=O)[nH]c(=O)c1S(=O)(=O)N1CCCc2ccccc21
  nt, 104, 101, 82
- Cc1ccccc1C(=O)N1CCC(C(=O)NC2CCCCCC2)CC1
  -9, 101, 100, 72
- CCC(C)c1ccc(NC(=NCc2ccncc2)NC(=O)c2ccc(NC(C)=O)cc2)cc1 (stereo not drawn)
  -13, 102, nt, nt
- Cc1csc(NC(=O)c2cc(-c3cccnc3)n(-c3ccc(F)cc3)n2)n1
  -3, 102, nt, nt
- O=C1CSC2(C(=O)N(Cc3ccccc3)c3ccccc32)N1c1cccc(F)c1 (stereo not drawn)
  nt, 104, 91, 86
- Brc1ccc(-c2ccc(Br)s2)s1
  -16, 99, 112, 87
- Cc1n[nH]c(=O)c2c(NC(=O)COC(=O)C3CC4CCCC(C3)C4=O)oc(C)c12 (stereo not drawn)
  -66, nt, 67, 83
- CCOC(=O)c1c(S(=O)(=O)NCC(=O)N2CCN(c3ccccc3OC)CC2)c(C)n(C)c1C
  nt, 101, 100, 91
- CCOC(=O)c1ccc(Oc2nc(N(C)C)nc(N3CCOCC3)n2)cc1
  -11, 99, 89, 82
- N#CC(C#N)=CNc1nn(-c2ccccc2)cc1C#N
  8, nt, 94, 77
- COC(=O)c1c(-c2ccc(OC)c(OC)c2)csc1NC(=O)C1CC1c1ccccc1 (stereo not drawn)
  -4, nt, 107, 103
- CCc1ccc(N2COc3ccc4cc(C(=O)OC)c(=O)oc4c3C2)cc1
  nt, 104, 72, 31
- CC(C(=O)Nc1ccc(S(=O)(=O)N2CCCC2)cc1)N1CCc2ccccc2C1 (stereo not drawn)
  -3, nt, 100, 95
- Nc1nnc(N)c2ccccc12
  -14, nt, 87, 94
- CCN(Cc1ccccc1)C(=O)Cn1cc2c(n1)CCCCCC2
  nt, 109, 99, 93
- Cc1cc(C(=O)Cn2cnc3ccsc3c2=O)c(C)n1CCC1=CCCCC1
  -16, nt, 62, 90
- Cc1nn(-c2ccccc2)c2sc(C(=O)N3CCN(C(=O)c4ccccc4)CC3)cc12
  -29, nt, 70, 88
- COC(=O)c1sccc1S(=O)(=O)N(CC(=O)Nc1cc(C)cc(C)c1)c1ccc(Cl)cc1
  nt, 100, 114, 94
- Cc1nnc(SCC(=O)NCc2ccc(N(C)C)cc2)c2nn(-c3ccccc3)c(C)c12
  nt, 108, 86, 94
- CCOC(=O)c1c(NC(=O)C(C)Sc2nnc(CNC(=O)c3ccco3)n2-c2cc(C)ccc2C)sc2c1CCC2 (stereo not drawn)
  -17, 103, 81, 59
- Fc1ccc(-c2nn(-c3ccccc3Cl)c3c2cnc2ccccc23)cc1
  nt, 107, 106, 99
- Cc1cc(C)cc(Oc2c(F)c(F)c(F)c(F)c2F)c1
  -25, 104, 105, 77
- CCOc1ccc(CNC(=O)C2CCN(C(=O)N3CC(CC)Oc4ccccc43)CC2)cc1 (stereo not drawn)
  11, 108, 85, 86
- CCCCN(C)c1nc2c(S(=O)(=O)c3ccc(CC)cc3)nnn2c2ccc(Cl)cc12
  -21, 103, 101, 84
- CCOc1ccc(NC(=O)Cn2c(=O)n(CCc3ccccc3)c(=O)c3c4c(sc32)CCCC4)cc1
  -16, 105, 104, 93
- COc1ccccc1CNC(=O)CSc1ccc(-c2sc(-c3ccccc3)nc2C)nn1
  nt, 103, 115, 56
- CCc1ccc(N2C(=O)CSC23C(=O)N(C)c2ccccc23)cc1 (stereo not drawn)
  -27, 103, 97, 91
- O=C(OCc1ccccc1Cl)c1ccc2c(=O)n3c(nc2c1)CCC3
  -22, nt, 84, 86
- COc1ccc(NC(=O)Cn2c(=O)n(Cc3ccccc3Cl)c(=O)c3cc(OC)c(OC)cc32)cc1OC
  -14, 104, 105, 90
- Cc1ccc(CC(=O)O)cc1C
  11, nt, 102, 93
- CCOCCc1nn2c(=O)cc(COC(=O)c3ccccc3OC)nc2s1
  nt, 105, 100, 89
- CCOC(=O)c1cnc2c(S(=O)(=O)C(C)C)csc2c1Sc1ccc(Cl)cc1
  -25, 103, 107, 92
- COc1cc(C2c3c(oc4ccccc4c3=O)C(=O)N2c2nnc(C(C)C)s2)cc(OC)c1OC (stereo not drawn)
  -26, 98, 89, 94
- CC(C)(Oc1ccc(Cl)cc1)C(=O)Nc1cccc(-c2nn3cnnc3s2)c1
  2, 102, 113, 92
- Cc1cc2nn(-c3ccccc3)nc2cc1NC(=O)Cc1ccc(Cl)cc1
  -14, 109, 110, 89

# Laid out differently: entries from further up
CCc1ccc(N2COc3ccc4cc(C(=O)OC)c(=O)oc4c3C2)cc1
  HCMV NEC inh: nt; GIV Gai3 FP: 104; Sa growth inh: 72; Sa growth inh second temp: 31

CCOc1ccc(CNC(=O)C2CCN(C(=O)N3CC(CC)Oc4ccccc43)CC2)cc1 (stereo not drawn)
  HCMV NEC inh: 11; GIV Gai3 FP: 108; Sa growth inh: 85; Sa growth inh second temp: 86

Cc1nc2nc3c(c(Nc4ccc(Br)c(C)c4)n2n1)CCC3
  HCMV NEC inh: -10; GIV Gai3 FP: 107; Sa growth inh: nt; Sa growth inh second temp: nt

COc1cc(C2c3c(oc4ccccc4c3=O)C(=O)N2c2nnc(C(C)C)s2)cc(OC)c1OC (stereo not drawn)
  HCMV NEC inh: -26; GIV Gai3 FP: 98; Sa growth inh: 89; Sa growth inh second temp: 94

# Quoted from the listing.
# Value for CCOc1ccc(NC(=O)Cn2c(=O)n(CCc3ccccc3)c(=O)c3c4c(sc32)CCCC4)cc1 under Sa growth inh second temp: 93
# Value for Cc1n[nH]c(=O)c2c(NC(=O)COC(=O)C3CC4CCCC(C3)C4=O)oc(C)c12 (stereo not drawn) under Sa growth inh: 67

# Additional results:
Molecule	HCMV NEC inh	GIV Gai3 FP	Sa growth inh	Sa growth inh second temp
O=C1CCSC2=C1CS(=O)(=O)c1ccc(Cl)cc12	-129	109	98	88
CCCCC(=O)Nc1ccc2nc(NC(C)=O)sc2c1	-30	101	nt	nt
O=C(COC(=O)c1c2c(nc3ccccc13)CCCC2)c1ccco1	-25	nt	76	40
Cc1ccc2oc(=O)c3cnn(CC(=O)N(C)Cc4ccccc4)c3c2c1	nt	101	97	90
CC1CCN(S(=O)(=O)c2ccc3c(c2)N(CC(=O)NCCN(C)C)C(=O)CS3)CC1	-22	102	102	90
FC(F)(F)c1ccc(Oc2ccc(Oc3ccc(C(F)(F)F)cn3)cc2)nc1	-36	103	114	86
COc1ccc2ccccc2c1Br	-7	102	127	109
COc1cccc(NCc2cccn2-c2nnc(N3CCC(C)CC3)s2)c1	nt	106	116	98
Cc1ccc2nc(CCC(=O)O)[nH]c2c1	1	nt	100	95
O=C(NS(=O)(=O)NC(=O)c1ccccc1)c1ccccc1	-6	nt	94	84
Cc1ccc2c(c1)N(CC(=O)NCCc1ccc(Cl)cc1)C(=O)c1cccnc1O2	nt	107	101	97
C=C(C)CN(CC)C(=O)CSc1nnc(Cc2cccc3ccccc23)n1N	-37	nt	86	97
Cc1c(Cl)cccc1Nc1nn2c(=O)c3ccc(C(=O)N(C)Cc4ccccc4)cc3nc2s1	nt	103	91	92
CCCCn1c(N)c(N(C(=O)c2ccc(Cl)c(Cl)c2)C2CCCC2)c(=O)[nH]c1=O	-6	nt	100	96
